# AID504770: E. coli YBA685 growth inhibition, screen for V. cholerae RctB inhibitors. E. coli YBA685 rctB-dependent plasmid, OD600 growth, 3 h; hits give low values. z-score (concentration not given with the values). actives 0.27% (n = 130,000). AID 504770;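 active means z-score under -2 on both plates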;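 further: wells of about 30 µL received 100 nL stock; score is relative to mean and SD of the test wells; the first replicate is given; strong numbers were not always called active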
# Ba CapD inh: inhibitors of Bacillus anthracis CapD enzyme. actives 0.23% (n = 140,000). AID 492967. z-score (no concentration beside the values). purified CapD enzyme, fluorescence intensity read-out; hits give low values; some hits fall short of the stated cut;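 active means z-score under -4 in either of two replicates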;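 further: stock transfer was 100 nL into about 40 µL; score is relative to mean and spread of the plate; one replicate is shown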
# Active calls of the source: *; / = not tested or not shown; & = joins results of further samples.
SMILES,AID504770,Ba CapD inh
COc1ccc(C2OCC3C(C)C=C(C)C2C3C)cc1 (stereo not given),/,0.055
O=c1c2c3nc4ccccc4nc3n(C3CCCC3)c2ncn1Cc1ccccc1,-1,1.64
O=C(NCCc1nc(-c2ccc(Cl)cc2)no1)c1cccs1,-0.55,/
CNC(=O)NC1CC(=O)N(c2ccc(OC)cc2)C1 (stereo not given),0.25,/
CCOC(=O)c1cc2cnccc2nc1-c1ccccc1OC,/,-0.3
S=C(NCc1ccco1)SCc1cn2ccccc2n1,-2.05,0.26
CCOC(=O)N1CCC(N2Cc3cccc(C(=O)NCc4ccc5c(c4)OCO5)c3C2=O)CC1,0.3,0.745
Cc1cnc(C(=O)OCC(=O)C(C)(C)C)cn1,0.25,/
CC(=O)N=c1sc(S(N)(=O)=O)nn1C,0.15,-0.02&0.95
CO/N=C/C1C(=O)N(OCc2ccc(Cl)cc2Cl)C(=O)c2ccccc21 (stereo not given),/,-1.02
CC(C)(C)C(=O)C(CO)(Oc1ccc(Cl)cc1)n1cncn1 (stereo not given),-0.55,/
CN1CCN(c2ccc(NC(=O)c3cccc4c3OC(C)(C)C4)cc2)CC1,0.15,-1.01
Clc1cc(N=Cc2ccccn2)c(Cl)cc1N=Cc1ccccn1,1,0.86
Cc1oc(-c2ccccc2)nc1CSc1nncn2c1cc1sccc12,0.15,0.915
CCOC(=O)c1sc2nc(C)nc(NCCC3=CCCCC3)c2c1C,/,36.9
O=C(NCc1ccco1)c1ccc(-n2c(=S)[nH]c3ccccc3c2=O)cc1,-0.2,0.475
O=C(CSc1ncc(CO)n1Cc1ccc(Cl)cc1)N1CCN(c2ccccc2)CC1,0.3,0.035
O=C(O)CONC1=NS(=O)(=O)c2ccccc21,0.05,/
Cc1ccc(S(=O)(=O)CCC(=O)Nc2ccc(S(N)(=O)=O)cc2)cc1,1.1,/
Cc1c(C(=O)N2CCCCC2)sc2nc(-c3ccccc3)cn12,-0.2,0.78

# Four successive compounds already listed:
SMILES,AID504770,Ba CapD inh
O=C(CSc1ncc(CO)n1Cc1ccc(Cl)cc1)N1CCN(c2ccccc2)CC1,0.3,0.035
O=C(O)CONC1=NS(=O)(=O)c2ccccc21,0.05,/
Cc1ccc(S(=O)(=O)CCC(=O)Nc2ccc(S(N)(=O)=O)cc2)cc1,1.1,/
Cc1c(C(=O)N2CCCCC2)sc2nc(-c3ccccc3)cn12,-0.2,0.78

# Other results follow.
SMILES,AID504770,Ba CapD inh
CC/C(=N\OC(=O)Nc1cc(Cl)cc(Cl)c1)c1ccc(-c2ccccc2F)cc1,/,-0.385
CCOC(=O)c1ccc(Cn2c3ccccc3c3nc4cc(F)ccc4nc32)o1,/,-0.115
O=C(O)CC1(CC(=O)O)CCCC1,0.95,-0.155
O=C(NCC1COc2ccccc2O1)Nc1ccccc1F (stereo not given),-0.35,/
Cc1c(C)c(C)c2[nH]c(SCc3nc(-c4ccc(Cl)cc4)no3)nc2c1C,0.6,0.755
COc1ccc(CC(Cc2nc3ccccc3[nH]2)c2nc3ccccc3[nH]2)cc1 (stereo not given),/,0.05
Cc1nc(-c2ccccc2)sc1C(N)=O,-0.5,/
COc1ccc2c(c1)CCc1c-2n[nH]c1C(=O)O,1.7,/
O=C1OC(c2ccc(Br)cc2)(c2ccc(Br)cc2)c2ccccc21,/,-0.405
O=S(=O)(c1cc(Cl)sc1Cl)N1CCN(c2cc(C(F)(F)F)nc3ccccc23)CC1,/,1.96
CC1=CC(=C2C(=O)NC(=S)NC2=O)C=C(C)N1CC(C)C,-0.75,0.065
COc1ccc(CN2CCN(c3ncnc4scc(-c5ccc(Cl)cc5)c34)CC2)cc1F,0.75,-1.16
COC(=O)c1ccc(-n2nnnc2SCc2nc(N)nc(N3CCOCC3)n2)cc1,/,0.42
C=CCc1cccc2cc(C(=O)OCC)c(=O)oc12,-1.1,8.78
CCOC(=O)N1CCN(C(=O)c2cc(-c3cccc(OC)c3)n[nH]2)CC1,0.1,-0.395
CC(=O)OC(COc1ccccc1)Cn1cnc2ccccc21 (stereo not given),1.15,-0.665
O=C(O)CCC(=O)N1N=C(c2c(-c3ccccc3)c3cc(Cl)ccc3[nH]c2=O)CC1c1ccccn1 (stereo not given),/,16.9
Nn1c(SCC(=O)N(Cc2ccco2)C2=CCCCC2)nnc1-c1ccc(OC(F)F)cc1,1.35,/
CCOC(=O)c1c(NC(=O)c2sc3cccc(Cl)c3c2Cl)sc2c1CCCC2,/,-0.185
O=C(O)c1cc(=O)c2c(O)cccc2o1,-0.25,-0.78
Cn1ccnc1SCC(=O)c1ccc2ccccc2c1,-0.45,/
COc1cccc(-n2c(SCC(=O)NCCc3ccc(OC)c(OC)c3)nc3n[nH]c(C)c3c2=N)c1,/,0
COc1cc(SC)ccc1C(=O)NN1CCOCC1,0.8,/
CCOc1cc(OCC)cc(C(=O)Nc2ccc3oc(-c4cccc(F)c4)nc3c2)c1,/,17.3
COCCNC(=O)c1ccc2c(Cl)c3c(nc2c1)CCCC3,-0.05,-0.705
CCc1ccc(C2(O)CC(C(F)(F)F)=NN2C(=O)c2ccc([N+](=O)[O-])cc2)cc1 (stereo not given),/,0.03
CC(C)CCNC(=O)CN1CCOc2ccccc21,-0.45,-0.5
COCc1nc2ccccc2[nH]1,-0.85,0.16
CSC(=S)N/N=C(\C)c1ccccc1,-0.4,/
CCC1(CC)Cc2ccccc2C(Nc2c(C)n(C)n(-c3ccccc3)c2=O)=N1,-0.25,-0.785
CN(C)c1cnn(-c2cnc3ccccc3n2)c(=O)c1Cl,-0.55,-2.67
CCOc1ccc2[nH]c(=O)c(CN(CC3COCCO3)C(=O)C3CC3)cc2c1 (stereo not given),0,/
O=C(N[C@@H](Cc1ccccc1)c1nc2ccccc2[nH]1)c1ccc(=O)[nH]c1,0.4,/
NS(=O)(=O)c1cccc(C(=O)N2CCCc3ccccc32)c1,-0.1,0.245
CCN1CCN(C(=O)C(Cc2ccccc2)NS(=O)(=O)c2ccc3c(c2)c(=O)n(C)c(=O)n3C)CC1 (stereo not given),-0.1,0.64
Cc1nnc2n1N=C(c1ccc(-c3cc(Cl)ccc3Cl)o1)CS2,0.1,0.81
O=C(c1ccco1)c1cc(-c2nc3ccccc3[nH]2)c(-c2ccco2)n2c1nc1ccccc12,1.4,/
Cc1nonc1OCC(C)(COc1nonc1C)NS(=O)(=O)c1ccccc1,-0.65,-0.71
Nc1c(C(=O)c2cc(F)ccc2O)cnn1-c1ccc(Cl)cc1,0.9,/
O=C1NC(=O)/C(=C/c2ccc(-c3ccc([N+](=O)[O-])cc3Br)o2)S1,/,-1.04
CC1=CC(=C(C#N)C#N)C=C(C)N1CC1CCCO1 (stereo not given),-0.2,/
O=C1C2CCc3[nH]c4ccccc4c3C2C(=O)N1Cc1ccccc1 (stereo not given),1.65,/
COc1ccc(/C(O)=C2\C(=N)N(c3cccc(Br)c3)C3=C(C(=O)CCC3)C2c2ccc3c(c2)OCO3)cc1 (stereo not given),/,-0.56
O=C(N/N=C/c1cn(-c2ccccc2)nc1-c1cc2ccccc2o1)c1ccncc1,0.5,/
CN1C(=O)CC(C(=O)NCCc2ccccc2)SC1=Nc1cccc(C(F)(F)F)c1 (stereo not given),/,-0.225
COc1ccccc1N1CCN(C(=O)c2cccn2C)CC1,-0.3,/
Cc1ccc2c(cnn2C(=O)CCCC(=O)NC2CCCC(C)C2C)c1 (stereo not given),-0.35,-0.64
CCOC(=O)Cc1csc(NC(=O)CSCC(=O)O)n1,/,0.09
Oc1ccc2ccccc2c1/C=N/c1ncccn1,1.9,-0.435
Cc1n[nH]c(=O)[nH]c1=O,/,8.9

# Continuation:
SMILES,AID504770,Ba CapD inh
Cc1ccc(N2C(=NC(=O)CCC(=O)O)SC3CS(=O)(=O)CC32)cc1C (stereo not given),-0.4,0.725
O=c1oc(-c2cccc(C(F)(F)F)c2)nc2cccc(F)c12,/,0.36
Cc1[nH]c(=O)c(C#N)cc1-c1ccccc1,-1.3,10.6
COc1ccc(C(=O)Oc2ccc3oc(=O)sc3c2)cc1OC,1.3,0.21
COc1ccc(N2C(=O)NC(=O)/C(=C\c3cc(C)n(-c4cccc([N+](=O)[O-])c4)c3C)C2=O)cc1,/,-0.15
CCOC(=O)c1c(SC)nc2c(Cl)cccc2c1N(C)CCO,0.5,-0.525
CC(=O)Nc1ccccc1C(=O)O,/,1.94
O/N=C(\c1ccccc1)c1nonc1/C(=N/O)c1ccccc1,-1.3,-1.06
Cc1c(Cl)cccc1NC(=O)CC(NCc1ccccn1)C(=O)O (stereo not given),-0.25,9.09
Cc1cc(N2CCCCC2)nc2ccc(NC(=O)c3ccc(Br)o3)cc12,0.1,1.67
COC(=O)c1ccc2c(=O)n(CCCC(=O)O)c(=S)[nH]c2c1,0.65,1.83
CCn1c(CCNC(=O)C(C)(C)C)nc2ccccc21,-1,-0.415
O=C(C1=NOC(CNc2ncc(C(F)(F)F)cc2Cl)C1)N1CCOCC1 (stereo not given),/,-0.315
CS(=O)(=O)c1ccc2c(c1)CCN2C(=O)CCC(=O)NCC1CCCO1 (stereo not given),/,-0.265
COc1cc(SC)ccc1C(=O)N1CCC(C(N)=O)CC1,0.8,-0.37
Cc1nn(CCC#N)c2nc(C(F)(F)F)[nH]c(=O)c12,0.5&0.55,0.57
CC1=C(C)CS(=O)N(S(=O)(=O)c2cccc([N+](=O)[O-])c2)C1 (stereo not given),/,-0.17
Clc1ccc(-c2cnc3nonc3n2)cc1,-1.4,-1.85
O=C(/C=C/c1ccco1)NCCc1csc2nc(-c3ccc(F)cc3)nn12,0.4,/
CC(C)NC(=O)c1ccc2c(c1)S(=O)(=O)c1ccccc1C2=O,-0.55,-0.745
O=C(CS(=O)(=O)Cc1ccc(Cl)c(Cl)c1)Nc1ccc(F)c(Cl)c1,/,0.38
CCc1ccc(N(C)S(=O)(=O)c2ccc3[nH]cc(C(=O)N4CCCCCC4)c(=O)c3c2)cc1,-0.25,-0.01
O=C(O)CC(NC(=O)C(c1ccccc1)c1ccccc1)c1ccco1 (stereo not given),-1,-0.165
C=CCNS(=O)(=O)c1cccs1,0.25,0.685
CC1=C(C(=O)OCCOc2ccccc2)C(c2ccc3c(c2)OCO3)C2=C(CC(c3ccccc3)CC2=O)N1 (stereo not given),/,27.7
Cc1cc(Br)ccc1OCC(=O)NCCC1=CCCCC1,0.6,-0.335
Nc1ncccc1C(=O)OCCN1C(=O)c2ccccc2C1=O,-0.8,/
CCC(=O)N1c2ccccc2NC2=C(C(=O)CC(c3cccs3)C2)C1c1ccc(C(=O)OC)cc1 (stereo not given),/,8.45
O=c1c2oc3ccccc3c2nc2n1Cc1ccccc1-2,/,-0.62
COCCOC(=O)C1=C(C)NC2=C(C(=O)CC(C)(C)C2)C1c1coc2ccccc2c1=O (stereo not given),/,0.765

# Part of the list above in order of molar mass, rising.
SMILES,AID504770,Ba CapD inh
O=c1c2oc3ccccc3c2nc2n1Cc1ccccc1-2,/,-0.62
CCC(=O)N1c2ccccc2NC2=C(C(=O)CC(c3cccs3)C2)C1c1ccc(C(=O)OC)cc1 (stereo not given),/,8.45
CC1=C(C(=O)OCCOc2ccccc2)C(c2ccc3c(c2)OCO3)C2=C(CC(c3ccccc3)CC2=O)N1 (stereo not given),/,27.7

# The main list resumes, repeating the five entries before the break.
SMILES,AID504770,Ba CapD inh
Cc1cc(Br)ccc1OCC(=O)NCCC1=CCCCC1,0.6,-0.335
Nc1ncccc1C(=O)OCCN1C(=O)c2ccccc2C1=O,-0.8,/
CCC(=O)N1c2ccccc2NC2=C(C(=O)CC(c3cccs3)C2)C1c1ccc(C(=O)OC)cc1 (stereo not given),/,8.45
O=c1c2oc3ccccc3c2nc2n1Cc1ccccc1-2,/,-0.62
COCCOC(=O)C1=C(C)NC2=C(C(=O)CC(C)(C)C2)C1c1coc2ccccc2c1=O (stereo not given),/,0.765
CN=C(Nc1ccccc1OC)SC,/,-1.31
Cc1cc(C(=O)O)no1,0.05,/
CC1(C)CC(=O)C2=C(C1)Nc1ccccc1N(C(=O)Cc1ccccc1)C2c1ccc([N+](=O)[O-])cc1 (stereo not given),/,-0.175
CC(=O)Nc1ccc(-n2sc3c(c2=S)-c2cc(C)ccc2NC3(C)C)cc1,-0.3,-0.015
COc1ccc(CN=C(C)c2c(O)[nH]c(=O)[nH]c2=O)cc1,0.2,/
CCOC(=O)/C=C(\C)NC1CC(C)(C)NC(C)(C)C1,0.3,0.51
OCCNc1nc(N2CCOCC2)ncc1F,1.5,/
Cc1noc(C)c1COc1ccc(C(=O)OCC(=O)NC2CCCc3ccccc32)cc1 (stereo not given),0,/
Cn1c(-c2ccccc2)cnc1NC(=O)c1ccc(F)cc1,-0.55,/

# 6 entries drawn at random from the list so far, as already listed:
SMILES,AID504770,Ba CapD inh
CC1(C)CC(=O)C2=C(C1)Nc1ccccc1N(C(=O)Cc1ccccc1)C2c1ccc([N+](=O)[O-])cc1 (stereo not given),/,-0.175
CCOC(=O)/C=C(\C)NC1CC(C)(C)NC(C)(C)C1,0.3,0.51
Cn1c(-c2ccccc2)cnc1NC(=O)c1ccc(F)cc1,-0.55,/
COc1ccc(CN=C(C)c2c(O)[nH]c(=O)[nH]c2=O)cc1,0.2,/
CN=C(Nc1ccccc1OC)SC,/,-1.31
Cc1noc(C)c1COc1ccc(C(=O)OCC(=O)NC2CCCc3ccccc32)cc1 (stereo not given),0,/
